Assay outcomes: PubChem BioAssay, several laboratories
Bead autofluor = compound fluorescence in toxin protease inhibitor counterscreen. AID 624483. fluorescence intensity (test concentration not listed). actives 3.1% (n = 360,000). compound autofluorescence counterscreen, microsphere flow cytometry; hits give high values;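 active = at least 3 SD above the mean of all compounds, about 16000 in these data; inconclusive = too few beads counted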;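 also: 100 nL of 1 mM stock went into each well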
BJeLR lethal = kills HRASV12-expressing BJeLR cells; inhibition, % (no concentration beside the values); actives 0.17% (n = 300,000); BJeLR (HRASV12) viability, CellTiter-Glo ATP luminescence, 48 h; reference of the scale not given here;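 active = replicate mean above 50%; inconclusive = above 50% but judged a plate artefact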;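 also: 50 nL library stock added to about 25 µL; numbers are from one replicate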
Mtb hypoxia rep = inhibitors of hypoxia-regulated fluorescent reporter in Mycobacterium tuberculosis. M. tuberculosis hypoxia-regulated fluorescent reporter, fluorescence. fluorescence inhibition, % (no concentration beside the values). actives 0.1% (n = 300,000). AID 1159583;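 active = 35 to 45% if threefold the growth effect, above 45% if 1.5-fold the growth effect; inactive = the rest, general growth blockers included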;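 also: wells of about 50 µL received 100 nL stock; 0% = vehicle wells and 100% = reference inhibitor wells; whole bacteria with a GFP reporter of the hypoxia response; strong numbers were not always called active; many hits fall short of the cut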
Sa ugtP lethal = kills S. aureus RN4220 lacking UgtP; actives 0.54% (n = 330,000); S. aureus RN4220 ugtP deletion, OD600 growth, 16 h; some inactives read as strong as hits; growth inhibition, % (no concentration beside the values); AID 1259309;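 active = z-score under -3 and OD600 up to 0.15 on both plates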;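 also: plate controls were untreated wells for no effect and antibiotic for full effect; wells of about 80 µL received 100 nL stock; the first replicate is given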
Sa RN4220 lethal = kills Staphylococcus aureus RN4220; S. aureus RN4220 growth, OD600, 16 h; inhibition, % (no concentration beside the values); actives 0.33% (n = 330,000); AID 1259311;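 active = z-score of -3 or lower and OD600 up to 0.18 on both plates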;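 also: plate controls were untreated cells for no effect and reference antibiotic for full effect; stock transfer was 100 nL into about 80 µL; one replicate is shown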
PrP UTR inh = inhibition of PrP 5' UTR reporter expression | cell-based PrP 5' UTR mRNA reporter, plate reader | inhibition, % (test concentration not listed) | actives 0.35% (n = 340,000) | AID 488862;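 active = every replicate at 50% or more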;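 also: 0 = median of the neutral control wells; tested in H4 reporter cells; numbers are from one replicate; inactives centre near -14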
Mtb hypoxia rep growth = also measured in Mtb hypoxia rep; calls as there; growth inhibition, %; measured here: M. tuberculosis growth (absorbance);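 0% = vehicle and 100% = reference antibiotic; read after six days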
* = called active by the depositor; ? = inconclusive; . = no result given. Not a hit list; 4% or so of the library scored in one or more.

Every second line gives: Bead autofluor	BJeLR lethal	Mtb hypoxia rep	Mtb hypoxia rep growth	Sa ugtP lethal	Sa RN4220 lethal	PrP UTR inh
COc1ccc(N2CCN(CCNC(=O)CCC(=O)NNc3nc4ccccc4c4nc(C)nn34)CC2)cc1
    4526	-11	-1	-1	10	3.2	-14
N#Cc1ccc(Cn2cc(C=O)c3ccccc32)cc1
    2881	-1	4	-7	9	2.6	19
CCCCCn1c(CN2CCN(Cc3ccccc3)CC2)nc2c1c(=O)n(C)c(=O)n2C
    20660*	3	-7	3	-6	3.3	-4
COC(=O)Cc1ccc(NC(=S)NNC(=O)C2CC2)cc1
    3931	6	9	-11	9	-0.1	-11
CCCn1c(C(C)NC(C)=O)nc2ccccc21 (stereo not drawn)
    5648	-6	5	12	6	-0.8	-18
CC(Oc1ccc(Br)cc1)C(=O)N1CCN(c2ccccn2)CC1 (stereo not drawn)
    5020	-2	5	4	2	-0.9	1
O=C1CCN(Cc2ccc(O)cc2)CCN1[C@H](CO)c1ccccc1
    2774	2	.	.	.	.	-10
CCc1ccc(NC(=O)CC2C(=O)NCCN2C(=O)c2ccc(F)cc2)cc1 (stereo not drawn)
    ?	-2	9	-4	15	4.3	-3
O=C(NN=CCCc1ccccc1)c1ccco1
    .	.	10	0	2	3.9	.
COc1ccc(NS(=O)(=O)c2cc3c(cc2C)N(C(C)=O)CCO3)cc1OC
    4946	11	-2	-7	-6	-3.9	-5
CCN(C(=O)c1cc2c(s1)-c1ccccc1OC2)c1cc(OC)ccc1OC
    4711	-8	.	.	10	-7.8	-21
Cc1ccccc1-c1nc(CS(=O)(=O)CC(=O)NCCCN2CCN(C)CC2)c(C)o1
    6563	3	1	1	-2	-1.0	-17
O=C(NCCc1csc(-c2ccccc2)n1)c1ccc(Br)o1
    6308	-1	-1	15	1	11	-3
C[C@H](NC(=O)c1[nH]cnc1C(=O)Nc1ccccc1)C(=O)OC(C)(C)C
    2906	7	.	.	.	.	-1
O=C(O)/C=C/C(=O)c1ccc2c(c1)CCc1ccccc1-2
    3741	18	.	.	.	.	-19
COCCn1nc2cc(C(=O)NCC34CC5CC(CC(C5)C3)C4)ccc2c1OC
    2961	-8	5	2	10	5.7	-9
Cc1cc(C)c(OCC(=O)OCCNC(=O)c2cccnc2)c(C)c1
    2752	-1	0	2	14	4.0	-15
CC(=O)c1cnc2c(-c3ccccc3)c(C)nn2c1C
    3841	28	.	.	4	3.5	-9
Cc1ccc(S(=O)(=O)NC(=O)CSc2nc3ccccc3s2)cc1
    16909*	-11	6	3	9	15	-7
COc1ccc(C2NC(=S)NC(C)=C2C(=O)c2ccccc2)cc1OC (stereo not drawn)
    2607	-3	4	0	6	6.0	0
CCN(CC)Cc1c(NC(=O)c2ccccc2)sc(C)c1C
    3422	8	1	5	2	0.4	-21
COc1ccc(-c2nc(CC(=O)O)cs2)cc1
    4442	2	.	.	5	2.4	-22
Cc1ccc(SCC(=O)Nc2ccccc2N2CCOCC2)cc1
    5540	12	8	5	4	3.4	-8
Cc1cccc(C(=O)N[C@H](C(=O)OCC(=O)NC2CCS(=O)(=O)C2)C(C)C)c1 (stereo partly drawn)
    1979	4	5	5	7	1.4	-18
Cc1ccc(S(=O)(=O)CCc2nnc(NC(=O)COc3cccc(C)c3)s2)cc1
    10268	-4	16	4	1	7.5	-20
O=C(Nc1cccnc1)c1ccc2c(c1)C(=O)N(CC1CCCO1)C2=O (stereo not drawn)
    2326	4	4	-1	-5	2.4	-16
O=C(CN1CCC(NC(=O)Nc2ccc(F)cc2)CC1)Nc1ccccc1[N+](=O)[O-]
    3488	1	-6	15	-4	-4.5	-6
COc1ccc(S(=O)(=O)CC(=O)Nc2ccccc2Cl)cc1
    1962	4	2	2	-2	6.3	-9
Cc1nc(SCc2ccc([N+](=O)[O-])cc2)n[nH]1
    .	-14	7	0	16	2.9	2
COC(=O)c1cc(OC)c(OC)cc1NC(=O)CSc1ccc(C)cc1
    25792*	0	0	5	-10	11	-26
CC(=C1C(=O)c2ccccc2C1=O)N1CCc2ccccc2C1
    5534	1	10	7	0	2.4	-30
Cn1cnnc1SCC(=O)c1cccc([N+](=O)[O-])c1
    2065	3	3	10	1	5.3	-7
O=C(/C=C/c1ccc(Cl)cc1)N1CCN(c2ccccn2)CC1
    2125	13	5	-7	1	1.4	-8
CC(C)(C)NCC(O)COc1c(F)cc(Br)cc1F (stereo not drawn)
    22894*	0	4	9	10	3.2	-15
COCc1cc(=O)[nH]c(N=C(N)Nc2ccc(Cl)c(Cl)c2)n1
    .	.	7	2	0	4.1	.
CCOc1ccc(NC(=O)CSc2nc(-c3cccs3)cc(C(F)(F)F)n2)c([N+](=O)[O-])c1
    2439	8	-5	6	2	11	-18
COc1ccc(CN2CCC(=O)N(C(CO)c3ccccc3)CC2)cc1 (stereo not drawn)
    .	.	9	6	-1	2.0	.
O=C(c1cccc(S(=O)(=O)N2CCc3ccccc3C2)c1)N1CCN(c2ccccc2)CC1
    2142	-11	4	-9	-4	0.3	-13
COc1ccc(C2=CSC3=NCCN23)cc1[N+](=O)[O-]
    3602	-2	8	2	3	0.3	-14
COc1cc(NC(=O)C2CCN(S(=O)(=O)c3ccc4c(c3)CC(C)N4C(C)=O)CC2)cc(OC)c1OC (stereo not drawn)
    6643	-5	16	3	4	-1.4	-21
CN(Cc1ccccc1)c1nc2c(c(=O)[nH]c(=O)n2C)n1CCCSc1ncccn1
    3075	-15	5	-11	5	4.0	5
CSCC[C@H](NC(=O)OC(C)(C)C)c1nnc(SCc2ccccc2)o1
    2283	-2	.	.	-3	-0.3	-22
CCN1CCCC1CNC(=O)C(=O)NC1CC1 (stereo not drawn)
    2098	-6	1	6	6	4.6	-33
COc1cccc(OCc2nnc3n2N=C(c2ccccc2)C(CC(=O)O)S3)c1 (stereo not drawn)
    4888	6	18	-4	4	0.0	-10
CC1CCN(CC(=O)N2CCN(c3ccccc3)CC2)CC1
    3399	0	1	12	4	1.5	-10
CCN(CC)C(=O)Cn1cc(C(=O)C(=O)NCc2cccnc2)c2ccccc21
    6172	-5	12	-2	-5	3.8	-7
COc1cc(C=c2sc3nc(-c4ccccc4)c(-c4ccccc4)n3c2=O)cc(OC)c1OC
    .	.	6	13	3	7.1	.
Cc1ncc([N+](=O)[O-])n1CCOC(=O)NC(NCc1ccccc1Cl)C(Cl)(Cl)Cl (stereo not drawn)
    2015	0	0	-4	-1	1.3	-24
COc1cccc(OCC(O)CN2CCN(C(c3ccccc3)c3ccccc3)CC2)c1 (stereo not drawn)
    .	-12	-5	3	-15	-0.1	-25
O=C(c1cccs1)c1coc2ccc(O)c(CN3CCOCC3)c12
    ?	.	15	1	0	4.8	6
Cc1ccnc2nc(C(=O)OCC(=O)c3ccc(Cl)cc3)nn12
    8844	.	5	-4	-3	5.9	-14
N#Cc1ccccc1NC(=O)Nc1ccc(Cl)cc1
    2432	-1	.	.	-4	1.7	-14
CN(C(=NS(=O)(=O)c1ccccc1)c1ccccc1)S(=O)(=O)c1ccccc1
    .	.	4	0	0	2.7	.
CN(Cc1ccccc1)S(=O)(=O)c1ccc2[nH]c(=O)oc2c1
    5938	-3	6	7	3	4.6	-5
C=CCN(C(=O)c1ccccc1)C1CCS(=O)(=O)C1 (stereo not drawn)
    5083	-10	1	-5	8	0.5	0
CS(=O)(=O)N(CC(=O)N1CCN(Cc2ccccc2)CC1)c1ccccc1F
    3496	-3	.	.	.	.	-28
CC(C)c1nc(SCC(=O)N2CC(=O)Nc3ccccc32)c2ccccc2n1
    4418	0	14	3	4	-3.3	-5
CCOC(=O)c1c(C)c(C(=O)N2CCC3(CC2)OCCO3)c(C)n1CC
    13197	-1	0	-1	9	4.8	-12
O=C1CN(C(=O)COC(=O)Cc2ccccc2)c2ccccc2N1
    4236	-4	13	15	11	3.7	-25
CSc1ccc(CN2C(=O)NC3(CCCCC3)C2=O)cc1
    3355	5	-13	6	-3	0.4	-17

Taken from above.
Under Sa ugtP lethal, `CCN1CCCC1CNC(=O)C(=O)NC1CC1` (stereo not drawn) reads 6
Under Sa ugtP lethal, `N#Cc1ccccc1NC(=O)Nc1ccc(Cl)cc1` reads -4

Additional compounds.
Every second line gives: Bead autofluor	BJeLR lethal	Mtb hypoxia rep	Mtb hypoxia rep growth	Sa ugtP lethal	Sa RN4220 lethal	PrP UTR inh
COc1ccc([N+](=O)[O-])cc1N(CC(O)CN1CCCCC1)S(=O)(=O)c1ccc(C)cc1 (stereo not drawn)
    3954	4	9	2	5	3.3	-6
CCOC(=O)C1CCN(C(=O)c2cc3c(=O)n4ccccc4nc3n2C)CC1
    2377	8	-1	14	-7	-4.3	-17
COc1ccc(C(=O)Nc2cc3c4c(c2)C(C)C(=O)N4CCC3)cc1OC (stereo not drawn)
    5135	6	-2	3	7	0.8	-35
CC1CCCN(C(=S)NCCc2ccccc2)C1 (stereo not drawn)
    3567	0	.	.	5	4.6	-27
C1CCC(NC2=NCCC2)CC1
    16054	4	8	6	11	4.2	-3
Cc1ccc(-n2ncc3c(NNC(=O)c4cccs4)ncnc32)cc1
    3217	5	6	3	6	3.5	-7
COC(=O)c1oc2c(c1C)C(=O)CCC2
    3310	-18	4	10	2	0.0	.
CCOC(=O)N1CCN(C(=O)C(=O)NN=Cc2ccc(OC)cc2OC)CC1
    .	.	1	6	10	2.7	.
O=C(Nc1ccccn1)c1ccc2c(c1)OCO2
    3934	11	-13	-6	3	1.5	-73
Cc1cc(NCc2ccccn2)nc2ccccc12
    5265	0	1	0	-7	4.9	-51
C=CCOC(=O)C(C#N)c1nc2ccccc2nc1N1CCN(c2ccccc2OCC)CC1 (stereo not drawn)
    2555	-13	-6	-9	-1	2.4	1
CN1C(N)=NC(=O)/C1=C/c1ccc(F)cc1
    .	-7	6	6	4	2.3	.
CCN(C(=O)COC(=O)c1cc([N+](=O)[O-])ccc1N1CCOCC1)C1CCS(=O)(=O)C1 (stereo not drawn)
    7081	-12	6	2	3	2.2	-7
CC(C)(CNC(=O)c1ccc(S(=O)(=O)N2CCCC2)cc1)N1CCOCC1
    ?	6	-1	15	1	1.9	-15
COc1ccc(C2C3=C(Nc4ncnn42)c2ccccc2CCC3)cc1 (stereo not drawn)
    9714	-3	14	7	-1	2.3	-4
O=C(CNC(=O)c1ccc(F)cc1)NN=Cc1cc(Br)ccc1OC(=O)/C=C/c1ccco1
    .	.	-2	5	0	-3.6	.
Cc1ccc(S(=O)(=O)Nc2ccc3c(c2)nc(C)n3C)cc1
    4724	5	6	8	4	12	-12
O=C(NN1C(=O)NC2(CCCCC2)C1=O)c1ccc(-c2ccccc2Cl)o1
    3928	.	12	3	-5	2.2	4
O=C(/C=C/c1cccc(O)c1)c1cccnc1
    5132	-1	2	1	0	8.8	-15
O=C(NCCc1ccccc1)c1cccc(Br)c1
    .	0	3	11	0	3.3	-69
CCN1CCCC1CN(Cc1cc2cc(OC)ccc2[nH]c1=O)C(=O)NCc1ccccc1 (stereo not drawn)
    9022	-8	4	0	4	3.9	-6
O=C(Nc1cccc(Cl)c1)Nc1csc([N+](=O)[O-])c1
    4018	8	.	.	.	.	-12
CCCCCn1c(=O)[nH]c2cc(C(=O)NCCN3C(C)CCCC3C)ccc2c1=O (stereo not drawn)
    6952	14	-9	-7	9	0.1	-13
Cc1ccccc1-n1c(=O)c2c(n3cnnc13)-c1ccccc1CC21CCCCC1
    4949	6	.	.	5	-2.4	-12
CC(C)NC(=O)N(Cc1ccccc1)Cc1cccs1
    4587	-3	-10	5	3	2.2	-15
O=C(c1cccc(F)c1)N1CCCC(C(=O)N2CCCCC2)C1 (stereo not drawn)
    6020	2	15	-6	1	0.8	-16
CC(=O)c1ccc(N2CCN(C(=O)c3cccs3)CC2)c(F)c1
    3145	2	5	2	14	8.1	-13
